Rango complex inh: qHTS Assay for Inhibitors of Rango (Ran-regulated importin-beta cargo) - Importin beta complex formation; Importin subunit beta-1 (Homo sapiens), Q14974; Rango CFP/YFP FRET sensor + importin beta, 45 min; Potency, µM (highest dose often 92.2 µM), for the others: at the top dose inhibition of complex formation; 0.031% of 340,000 active; active = rising FRET ratio curve, often small or poorly fitted; inconclusive = mostly compound fluorescence or quenching in the first reads; inactive = flat curves in all reads;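 also: potency is read from the fitted curve at half-maximal effect; 0% = DMSO wells and 100% = buffer wells lacking importin beta; nearly all actives have a fitted effect of over 15% in size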
Target sequence (Q14974 whole entry, looked up): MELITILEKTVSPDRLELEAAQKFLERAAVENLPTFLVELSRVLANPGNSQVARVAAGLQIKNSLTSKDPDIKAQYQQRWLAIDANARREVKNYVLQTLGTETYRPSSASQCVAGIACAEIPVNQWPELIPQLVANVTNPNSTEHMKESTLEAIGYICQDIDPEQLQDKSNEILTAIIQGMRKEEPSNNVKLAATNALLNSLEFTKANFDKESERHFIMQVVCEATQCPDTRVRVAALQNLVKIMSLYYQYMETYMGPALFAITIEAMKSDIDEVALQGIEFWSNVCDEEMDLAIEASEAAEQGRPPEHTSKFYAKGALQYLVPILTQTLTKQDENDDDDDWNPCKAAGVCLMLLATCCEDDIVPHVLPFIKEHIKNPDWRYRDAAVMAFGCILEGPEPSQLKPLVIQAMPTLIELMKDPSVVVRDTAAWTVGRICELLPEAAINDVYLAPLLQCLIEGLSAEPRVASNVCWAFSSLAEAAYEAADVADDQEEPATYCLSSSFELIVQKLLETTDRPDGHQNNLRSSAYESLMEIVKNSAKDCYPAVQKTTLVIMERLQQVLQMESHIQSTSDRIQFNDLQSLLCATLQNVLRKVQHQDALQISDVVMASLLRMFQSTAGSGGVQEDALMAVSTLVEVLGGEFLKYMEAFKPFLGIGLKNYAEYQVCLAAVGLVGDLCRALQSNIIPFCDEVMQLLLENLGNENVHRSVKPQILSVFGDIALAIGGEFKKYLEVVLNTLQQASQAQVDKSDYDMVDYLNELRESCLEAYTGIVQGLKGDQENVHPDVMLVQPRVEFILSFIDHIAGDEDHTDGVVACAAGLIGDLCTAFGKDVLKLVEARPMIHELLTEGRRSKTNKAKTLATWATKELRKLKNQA
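FRET biosensor Rango (snurportin 1 IBB between N-terminal EYFP and C-terminal Cerulean), 50 nM in PBS/1 mM DTT/0.02% Tween-20/0.1% BSA, preincubated 5 min RT with compound; 0.125 microM importin beta added, 45 min RT, CFP/YFP FRET ratio read.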
miR-21 FLuc: qHTS Assay for Modulators of miRNAs and/orActivators of miR-21; HeLa miR-21 FLuc reporter, luciferase, 48 h; Potency, µM (doses to about 38.3 µM), without a hit: at the top dose reporter change, positive = more light; 340,000 tested, under 10 active; active = well fitted rising curve with a large enough effect; inconclusive = small, poorly fitted or top-dose-only effect; inactive = no such curve, though single readings can be large or run the other way;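 also: % of control where 0% means no effect; miR-21 action dims this reporter so a rising signal means less miR-21 action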
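HeLa cells stably expressing CMV-driven firefly luciferase with a downstream miR-21 binding sequence, endogenously expressing miR-21, were treated with titrations (up to about 40uM final) for 48 hours at 37 degree Celsius. Luciferase luminescence was read after lysis.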
GLA inh pH 4.5: qHTS Assay for Inhibitors of Human alpha-Galactosidase at pH 4.5. Alpha-galactosidase A (Homo sapiens), P06280. purified enzyme, 4-MU-alpha-Gal fluorescence, pH 4.5. activity change, negative = inhibition, % at 105 µM. 230,000 tested, under 10 active. AID 1467, 2008; inconclusive = small, poorly fitted or top-dose-only inhibition, or a rising curve; inactive = flat fitted curve, though single readings scatter; no compound was filed as active;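 also: 0% = full activity with enzyme and -100% = basal without enzyme; dose as in the result columns while the protocol names 77 µM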
Rango dissoc inh: qHTS Assay for Inhibitors of RanGTP induced Rango (Ran-regulated importin-beta cargo) - Importin beta complex dissociation; Snurportin-1 (Homo sapiens) + GTP-binding nuclear protein Ran (Homo sapiens) + Importin …; Biochemical FRET Rango-importin beta, RanGTP-induced dissociation; Potency, µM (titrated, usually from 46.1 µM), for the others: top-dose activity change, negative = inhibition; 0.071% of 340,000 active; AID 540253, 2011; active means falling FRET ratio curve, often poorly fitted, with flat reads before Ran was added; inconclusive means other falling curves, or compound fluorescence or quenching; inactive means flat or rising ratio curve;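 also: potency is read from the fitted curve at half-maximal effect; % of control where 0% means no effect; nearly all actives have a fitted effect of over 45% in size; -100% = wells without RanGTP and RCC1; the record marks most hits as doubtful in a second field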
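Two FRET readings bracket the reaction: one 5 min after compound meets Rango–importin beta, another 45 min after RanGTP-RCC1 (0.6 uM Ran, 0.2 uM RCC1, 2 mM GTP) is added. Only the second defines inhibition.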
Numbers without * were called inactive; ? = inconclusive; nt = no result given. A portion of the library; the hit share may differ from the screen's.

The opening 4 compounds as a preview:
(1) O=C(NCc1ccco1)c1ccc(NS(=O)(=O)c2cccc(F)c2)cc1
(2) NS(=O)(=O)c1cc(C(=O)OCCNC(=O)c2ccccc2)c(Cl)cc1Cl
(3) COC(=O)[C@]1(CC(C)C)N[C@H](c2ccc(-c3ccc4c(c3)OCO4)cc2)[C@@H]2C(=O)N(C)C(=O)[C@@H]21
(4) O=C(NCCC1CCCCN1S(=O)(=O)c1cccs1)C(=O)NCc1ccccc1 (stereo unspecified)
compound no.	1	2	3	4
miR-21 FLuc	-7%	nt	nt	nt
GLA inh pH 4.5	nt	nt	nt	nt
Rango dissoc inh	4%	-1%	-19%	-8%
Rango complex inh	?	1.0%	-2.1%	2.4%

The list itself (from the top)
(1) O=C(NCc1ccco1)c1ccc(NS(=O)(=O)c2cccc(F)c2)cc1
(2) NS(=O)(=O)c1cc(C(=O)OCCNC(=O)c2ccccc2)c(Cl)cc1Cl
(3) COC(=O)[C@]1(CC(C)C)N[C@H](c2ccc(-c3ccc4c(c3)OCO4)cc2)[C@@H]2C(=O)N(C)C(=O)[C@@H]21
(4) O=C(NCCC1CCCCN1S(=O)(=O)c1cccs1)C(=O)NCc1ccccc1 (stereo unspecified)
(5) COc1ccc(S(=O)(=O)N2CCOCC2)cc1NC(=O)CN1CCCc2ccccc21
(6) COC(=O)N/N=C/c1cn(Cc2ccc(Cl)cc2Cl)c2ccccc12
(7) COc1ccc(N2CCOCC2)c(NC(=O)COc2cccc(C)c2C)c1
(8) C=CCC[C@@H](Cc1ccc(F)cc1)C(=O)O[C@H](CNC(=O)[C@@H](CC=C)CC(=O)N[C@H](CO)Cc1ccccc1)c1ccccc1
compound no.	1	2	3	4	5	6	7	8
miR-21 FLuc	-7%	nt	nt	nt	nt	20%	0%	nt
GLA inh pH 4.5	nt	nt	nt	nt	nt	-3	nt	nt
Rango dissoc inh	4%	-1%	-19%	-8%	0%	-3%	-7%	10%
Rango complex inh	?	1.0%	-2.1%	2.4%	6.6%	-3.4%	0.4%	-1.5%

(9) O=C(NN1CCOCC1)c1cc(S(=O)(=O)Nc2cccc(C(F)(F)F)c2)ccc1Cl
(10) CC(C)(C)[C@]1(O)CCN2C[C@H]3c4ccccc4CCc4cccc(c43)[C@@H]2C1
(11) COc1cccc(N/C(N)=N/c2nc(C)cc(=O)[nH]2)c1
(12) CCOC(=O)N1CCN(C(=O)CSc2nnc(-c3cc(OC)ccc3OC)o2)CC1
(13) O=C(N/N=C/c1ccc(OC(F)F)cc1OC(F)F)c1cccc(S(=O)(=O)N2CCOCC2)c1
(14) Cc1ccc(OCC(=O)Nc2ccc3c(c2)nc(CCN2CCCCC2)n3C)cc1
(15) COc1cccc(N2CCN(CC(=O)NC(=O)NCc3ccco3)CC2)c1
(16) COc1cccc(NS(=O)(=O)c2ccc3c(c2)CC(=O)N3)c1
compound no.	9	10	11	12	13	14	15	16
miR-21 FLuc	-3%	26%	-4%	-11%	5%	-3%	-6%	nt
GLA inh pH 4.5	0	nt	nt	2	-6	nt	1	nt
Rango dissoc inh	-7%	4%	-13%	1%	-4%	14%	-4%	2%
Rango complex inh	3.0%	0.3%	-1.8%	-0.5%	2.8%	5.4%	-0.4%	-0.6%

(17) COc1cccc(Nc2nc(-c3cccs3)nc3ccccc23)c1
(18) CCOC(=O)N1CCN(C(c2ccc(Cl)cc2)c2sc3nc(C)nn3c2O)CC1 (stereo unspecified)
(19) Cc1cccc(C)c1NC(=O)CN1CCN(C(=O)C2CCC2)CC1
(20) CC1c2ccccc2N(NC(=O)Cc2ccccc2)C1C (stereo unspecified)
(21) COc1ccc(NC(=O)N(C2CCCCC2)C(C)c2ccco2)c(OC)c1 (stereo unspecified)
(22) O=C(CN1CCN(C(=O)c2ccccc2Cl)CC1)Nc1cccc(S(=O)(=O)N2CCCC2)c1
(23) Cc1ccccc1OCC(=O)OC(C)C(=O)NC1CCCC1 (stereo unspecified)
(24) CC(=O)N/N=C(\C)CC(=O)Nc1cccc2c1CCCC2
compound no.	17	18	19	20	21	22	23	24
miR-21 FLuc	1%	6%	nt	-3%	-13%	nt	nt	-2%
GLA inh pH 4.5	3	6	nt	2	-1	nt	nt	4
Rango dissoc inh	-2%	2%	15%	-5%	-4%	-12%	?	4%
Rango complex inh	-0.8%	0.0%	0.1%	2.8%	-0.2%	2.2%	-2.0%	2.6%

(25) CC1=NN(C(=O)c2ccc(Cn3nc(C)cc3C)o2)C(O)(C(F)(F)F)C1 (stereo unspecified)
(26) CCNc1nc(NCC)nc(SCCOC(=O)COc2ccc(Cl)cc2Cl)n1
(27) Cc1ccc(S(=O)(=O)N2CCC(=O)N(CCOCc3cccc(Cl)c3)CC2)cc1
(28) CCN(CC)c1nc2c(s1)C(=O)CC(C)(C)C2
(29) O=C(NC1CCCCC1)c1cc(S(=O)(=O)N2CCN(c3ccccc3)CC2)ccc1Cl
(30) COc1c2c(cc3c1C(CC(O)Cc1ccccc1)N(C)CC3)OCO2 (stereo unspecified)
(31) Cc1ccc(-n2ncc3c(Nc4c(C)n(C)n(-c5ccccc5)c4=O)ncnc32)c(C)c1
(32) N/C(=N\OC(=O)c1cc(Cl)ccc1Cl)c1ccncc1
compound no.	25	26	27	28	29	30	31	32
miR-21 FLuc	-6%	-7%	-12%	-42%	nt	-1%	-10%	-41%
GLA inh pH 4.5	-2	-16	-3	-3	nt	nt	-4	6
Rango dissoc inh	-6%	-10%	3%	-9%	3%	-10%	-5%	-6%
Rango complex inh	-0.2%	-0.4%	-0.5%	-0.7%	-0.2%	0.7%	-6.7%	-0.8%

Three entries from above, set out differently.
| no. | molecule | miR-21 FLuc | GLA inh pH 4.5 | Rango dissoc inh | Rango complex inh |
| --- | --- | --- | --- | --- | --- |
| 32 | N/C(=N\OC(=O)c1cc(Cl)ccc1Cl)c1ccncc1 | -41% | 6 | -6% | -0.8% |
| 31 | Cc1ccc(-n2ncc3c(Nc4c(C)n(C)n(-c5ccccc5)c4=O)ncnc32)c(C)c1 | -10% | -4 | -5% | -6.7% |
| 30 | COc1c2c(cc3c1C(CC(O)Cc1ccccc1)N(C)CC3)OCO2 (stereo unspecified) | -1% | nt | -10% | 0.7% |

Following part:
(33) CN1CCN(NC(=O)CN2C(=O)/C(=C/c3c(Cl)cccc3Cl)SC2=S)CC1
(34) COc1cccc(OC)c1C(=O)NCCOc1cc(C)cc(C)c1
(35) CC(C)C(=O)N1CCN(c2ccccc2NC(=S)NC(=O)/C=C/c2ccco2)CC1
(36) COCCCn1c(=N)c(C(=O)NCc2ccc3c(c2)OCO3)cc2c(=O)n3ccccc3nc21
(37) Cc1c(C(=O)O)c2cc(O)ccc2n1-c1ccccc1
(38) Cc1cccc(NC(=O)Cc2c(F)cccc2Cl)n1
(39) O=C(C[C@@H]1C/C=C\C[C@@H](Cc2ccc(F)cc2)C(=O)OCCNC1=O)N[C@H](CO)Cc1ccccc1
(40) CN1CCN(C(=S)c2ccc(-c3cccc(Cl)c3Cl)o2)CC1
compound no.	33	34	35	36	37	38	39	40
miR-21 FLuc	5%	1%	nt	-2%	-4%	-43%	nt	-77%
GLA inh pH 4.5	-10	nt	nt	-1	5	nt	nt	4
Rango dissoc inh	-6%	-15%	2%	?	-9%	-2%	50%	-12%
Rango complex inh	-0.3%	4.4%	-2.1%	?	4.8%	0.0%	6.5%	-3.3%

(41) COCCN1C(=O)N[C@@H](c2ccccc2)[C@H](C(C)=O)[C@H]1C
(42) Cc1c(Nc2nc(C(F)(F)F)nc3ccccc23)c(=O)n(-c2ccccc2)n1C
(43) CC(=O)c1ccc2c(c1)CC1(C2)Cc2cc3c(cc2C1)C(=O)CC3 (stereo unspecified)
(44) Cc1cc(C)c(S(=O)(=O)N2CCOC2CNC(=O)C(=O)NCCN(C)C)c(C)c1 (stereo unspecified)
(45) CCOC(=O)N1CCN(Cc2nc(N)nc(Nc3ccc(OCC)cc3)n2)CC1
(46) CC(C)CN(C(=O)CSc1nncn1C)C1CCS(=O)(=O)C1 (stereo unspecified)
(47) COc1ccc(-c2nnc(S/C(=C/c3ccc(Cl)cc3)C(=O)O)o2)cc1
(48) O=C1OC(c2ccc(F)cc2)=N/C1=C\c1ccc(Br)o1
compound no.	41	42	43	44	45	46	47	48
miR-21 FLuc	nt	-1%	nt	-2%	-6%	nt	0%	1%
GLA inh pH 4.5	5	6	nt	nt	4	nt	0	0
Rango dissoc inh	-9%	?	13%	22%	2%	-16%	-23%	-17%
Rango complex inh	8.4%	-2.3%	0.7%	0.1%	0.8%	0.4%	-1.0%	-1.1%

(49) Fc1ccc(NCc2cn3ccccc3n2)cc1
(50) O=C(COc1ccc2oc3c(c2c1)CCCC3)Nc1ccccn1
(51) COC(=O)C(Cc1ccc(O)cc1)NC(=O)NC12CC3CC(CC(C3)C1)C2 (stereo unspecified)
(52) O=C(NCc1ccccn1)C1CCC(=O)N1C1CCCC1 (stereo unspecified)
(53) COCC(=O)Nc1nnc(-c2cccs2)s1
(54) Clc1ccccc1CN1CCN(/N=C/C=C/c2ccco2)CC1
(55) COc1ccc(NC(=O)c2ccccc2-c2ccccc2C(=O)O)cc1
(56) N#Cc1ccccc1Cn1c(=O)n(Cc2ccc(C(=O)NCc3ccco3)cc2)c(=O)c2ccccc21
compound no.	49	50	51	52	53	54	55	56
miR-21 FLuc	-48%	-51%	-5%	nt	-45%	-47%	0%	-9%
GLA inh pH 4.5	-2	4	nt	nt	-6	-4	nt	1
Rango dissoc inh	1%	-10%	-16%	-1%	-9%	-3%	-2%	?
Rango complex inh	0.0%	-2.0%	-5.2%	2.3%	0.0%	1.4%	-1.5%	-1.2%

(57) CCOC(=O)c1nc(C)nc(Sc2n[nH]c(-c3ccc(C(C)(C)C)cc3)n2)c1C
(58) COC(=O)[C@]1(Cc2ccccc2)N[C@H](CN(C)C(=O)Nc2ccccc2)[C@@H]2C(=O)N(Cc3ccccc3)C(=O)[C@@H]21
(59) CCOC(=O)C1(Cc2ccccc2C(F)(F)F)CCN(C2CCC2)CC1
(60) O=[N+]([O-])c1ccc(N(CCO)Cc2ccccc2)c([N+](=O)[O-])c1
(61) Cc1cc(OCC(=O)Nc2ccc(CCO)cc2)c2c(C)c(C)c(=O)oc2c1
(62) CC(OC(=O)C1CC(=O)N(Cc2ccccc2)C1)C(=O)Nc1ccccc1[N+](=O)[O-] (stereo unspecified)
(63) Cc1ccc(C(=O)Nc2nnc(CC(=O)N/N=C/c3ccncc3)s2)cc1
(64) O=C(O)c1ccc(S(=O)(=O)N2CCSCC2)cc1
(65) c1ccc(-n2nnnc2Cc2nnnn2-c2ccccc2)cc1
(66) CCc1cccc(N(C(=O)c2csnn2)C(C(=O)NC2CCCCC2)c2ccncc2)c1 (stereo unspecified)
(67) Nc1nc(Nc2cccc(C(F)(F)F)c2)nc(C(F)(F)F)n1
compound no.	57	58	59	60	61	62	63	64	65	66	67
miR-21 FLuc	?	nt	-4%	3%	-3%	nt	-43%	1%	0%	-3%	-44%
GLA inh pH 4.5	-13	nt	-2	nt	nt	nt	-4	nt	-4	nt	-10
Rango dissoc inh	-25%	0%	-2%	-5%	-2%	18%	-7%	0%	6%	1%	0%
Rango complex inh	-4.0%	-0.4%	-5.2%	-4.3%	-1.2%	-2.0%	-5.0%	1.0%	1.7%	-1.2%	0.1%

Screening data deposited in PubChem BioAssay by National Center for Advancing Translational Sciences (NCATS).
